From PubChem BioAssay
PV pol inh = inhibitors of poliovirus RNA polymerase binding and polymerization; P03300; poliovirus polymerase elongation, fluorescence polarization; active compounds read low; % elongation, % (compound at 16.7 µg/mL); actives 0.66% (n = 150,000); in the data active = % elongation below about 90%; also: some results filed as inactive read as strong as hits
MenB inh = inhibitors of Mycobacterium tuberculosis MenB enzyme; P9WNP5; actives 0.43% (n = 100,000); MenB enzyme assay, absorbance read-out; some hits fall short of the stated cut; inhibition, %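 (about 12 µg/mL by stock and volumes)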;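 active = mean of two replicates above 30%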;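 also: 0% = no compound and 100% = wells with inactive enzyme; the first replicate is given; strong numbers were not always called active; inactives centre near -10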
Target sequence (P9WNP5 whole entry, looked up): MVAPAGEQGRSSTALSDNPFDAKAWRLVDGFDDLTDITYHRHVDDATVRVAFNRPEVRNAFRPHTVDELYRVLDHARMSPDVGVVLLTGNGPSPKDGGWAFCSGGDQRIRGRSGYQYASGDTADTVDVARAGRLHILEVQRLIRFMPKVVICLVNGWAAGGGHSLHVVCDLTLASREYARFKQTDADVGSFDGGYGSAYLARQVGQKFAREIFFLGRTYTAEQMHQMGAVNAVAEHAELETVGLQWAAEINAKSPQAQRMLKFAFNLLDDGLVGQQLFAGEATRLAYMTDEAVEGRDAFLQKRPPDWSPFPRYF
Mtb MbtI inh = blocks the Mycobacterium tuberculosis siderophore enzyme MbtI; inhibition, %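 (about 17 µg/mL by stock and volumes)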; purified MbtI enzyme, fluorescence intensity read-out; actives 0.89% (n = 100,000); P9WFX0;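 active = above 50% in both replicates, above 80% if mildly self-fluorescent; inactive = the rest, strongly fluorescent compounds included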;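 also: 0% = mean of negative and 100% = mean of positive controls; one replicate is shown; some compounds called inactive have numbers as strong as hits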
Target sequence (P9WFX0 whole entry, looked up): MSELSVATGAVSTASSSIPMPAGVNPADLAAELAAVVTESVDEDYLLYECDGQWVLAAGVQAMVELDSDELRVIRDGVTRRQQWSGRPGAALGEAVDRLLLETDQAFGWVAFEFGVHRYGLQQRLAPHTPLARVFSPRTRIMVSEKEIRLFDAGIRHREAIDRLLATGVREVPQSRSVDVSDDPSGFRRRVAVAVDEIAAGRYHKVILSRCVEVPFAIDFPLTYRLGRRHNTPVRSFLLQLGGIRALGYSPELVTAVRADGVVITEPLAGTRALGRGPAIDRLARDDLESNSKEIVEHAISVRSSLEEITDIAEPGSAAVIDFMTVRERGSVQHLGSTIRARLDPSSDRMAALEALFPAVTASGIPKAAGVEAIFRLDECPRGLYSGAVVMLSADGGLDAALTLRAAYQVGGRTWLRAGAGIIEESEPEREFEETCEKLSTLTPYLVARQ
PV pol inh intensity = also measured in PV pol inh; calls as there; % elongation; measured here: total intensity read-out; formula for this scale not given here;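 total fluorescence in place of polarization; lower means less elongation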
Starred values were filed as active, the others as inactive; · = not tested or not shown; & = joins results of further samples.

SMILES	PV pol inh	PV pol inh intensity	MenB inh	Mtb MbtI inh
O=C1Nc2ccccc2Oc2cc(Sc3ccccc3)ccc21	107	121	-8	·
O=C(/C=C/c1ccc2c(c1)OCO2)Oc1ccc2c(c1)OCO2	103	104	-37	-4
CC(c1ccco1)N(Cc1ccco1)C(=O)Nc1ccccc1 (stereo not drawn)	100	102	0	15
CN(CC(=O)Nc1ccc(N2CCOCC2)cc1)S(=O)(=O)c1ccc2c(c1)OCCO2	102	108	0	-3
COc1ccccc1NC(=O)c1c(NCc2cccs2)sc2c1CCCCC2	103	105	-38	-2
O=c1cc(NCCCO)c2ccccc2o1	98	101	-28	17
CCCNC(=O)C1CN(S(=O)(=O)c2ccc(Cl)s2)c2ccccc2O1 (stereo not drawn)	108	111	-4	-4
CCCCn1nnnc1COC(=O)c1c2c(nc3ccccc13)CCCCC2	105	107	-4	8
O=C(Nc1ccc(C(F)(F)F)cc1)N1CCC(C(F)(F)F)CC1	106	107	-3	-4
CCN(CC)S(=O)(=O)c1cccc(-c2[nH]c3ccccc3[n+]2-c2ccccn2)c1	102	104	·	-3
CCCNC(=O)CCc1c(C)nc2c(c1C)c(=O)n(C)c(=O)n2C	104	101	5	-30
Cc1cc(C)cc(Oc2c(C(F)(F)F)oc3c(CN4CC(C)OC(C)C4)c(O)ccc3c2=O)c1 (stereo not drawn)	103	99	5	2
CCc1nnc(NC(=O)CSc2nc3c(c(=O)n2Cc2ccccc2)SC(C)C3)s1 (stereo not drawn)	99	102	-3	9
O=C(COC(=O)C1(c2ccc(F)cc2)CCCC1)NC1CC1	102	109	-7	17
c1ccc(-c2noc(CC3CCCCC3)n2)cc1	101	101	-15	-8
Cc1cc(NC(=O)CSc2nnc(Cn3c(=O)sc4ccccc43)n2-c2ccccc2)no1	100	103	0	4
O=C(NCc1cccs1)c1cc2c(=O)[nH]c3ccccc3c2s1	101	103	7	-2
Nc1ccc(-c2nc3ccccc3[nH]2)cc1	103	95	-19	·
CCc1ccc2oc(C(=O)Nc3ccccc3OC)c(C)c2c1	103	104	-26	8
COc1cc(OC)cc(C2SC(N)=C(C#N)C(N)=C2C#N)c1 (stereo not drawn)	147	151	-76	·
Cc1ccc(S(=O)(=O)Cc2ccc(C(=O)N3CCC4(CC3)OCCO4)o2)cc1	101	100	2	22
Cc1oc2ccc(O)c(CN3CCN(Cc4ccccc4)CC3)c2c1C(=O)Nc1ccc(C(C)C)cc1	102	103	-8	60
O=C(Nc1ccc(-c2nc3ccccc3o2)cc1)C1CCCC1	102	101	-10	79
O=C1CN(C(=O)COC(=O)c2ccccc2)c2ccccc2N1	102	108	0	-5
CCn1c(=O)n(CC)c2cc(N3CCCC3)c(NC(=O)CC(=O)OC)cc21	98	101	-17	17
COc1cccc(C2C3=C(CCCC3=O)N(C)C3=C2C(=O)CCC3)c1	100	102	-166	80
CC1(C)CC(C(CC#N)c2ccccc2)CCO1 (stereo not drawn)	103	103	-25	-1
Nc1ccccc1-c1nnc(-c2ccc(-c3ccccc3)cc2)o1	100	91	·	61
CCN(CC)C(=O)c1ccc(COc2cccc3ccccc23)o1	103	108	-21	-197
CCN(C(=O)CN1CC=C(c2ccccc2)CC1)C1CCS(=O)(=O)C1 (stereo not drawn)	104	102	-15	4
CC(C#N)Sc1nnc(-c2ccco2)n1Cc1ccccc1 (stereo not drawn)	105	110	-20	1
COc1ccc(-c2cc(-c3cccs3)n(-c3nc(C)cc(=O)[nH]3)n2)cc1	·	·	-33	9
Cc1nc2nc(CCc3ccccc3)nn2c(C)c1Cl	106	99	-33	-7
CC(C)(C)Nc1nc2nonc2nc1NC(C)(C)C	103	105	5	-2
CNC(=O)c1cc(Cl)ccn1	99	96	6	4
CN(C)C(=S)c1nc2ccccc2s1	99	94	-50	45
CS(=O)(=O)OCCCCOS(C)(=O)=O	102	101	-1	-25
COc1ccc(OCC(=O)NCCO)cc1	102	104	35*	14
O=C(CN1CCN(c2ccc(C(F)(F)F)cn2)CC1)N1CCCC1c1ccc2c(c1)OCCCO2 (stereo not drawn)	103	110	-9	-12
OC(c1ccccc1)c1nc2ccccc2n1Cc1ccccc1 (stereo not drawn)	102	100	-13	-13

3 structures already listed, sorted by length of the SMILES, smallest number first:
SMILES	PV pol inh	PV pol inh intensity	MenB inh	Mtb MbtI inh
CN(C)C(=S)c1nc2ccccc2s1	99	94	-50	45
CS(=O)(=O)OCCCCOS(C)(=O)=O	102	101	-1	-25
Cc1oc2ccc(O)c(CN3CCN(Cc4ccccc4)CC3)c2c1C(=O)Nc1ccc(C(C)C)cc1	102	103	-8	60

Of the compounds above, these have two or more sulfur atoms.
SMILES	PV pol inh	PV pol inh intensity	MenB inh	Mtb MbtI inh
COc1ccccc1NC(=O)c1c(NCc2cccs2)sc2c1CCCCC2	103	105	-38	-2
CCCNC(=O)C1CN(S(=O)(=O)c2ccc(Cl)s2)c2ccccc2O1 (stereo not drawn)	108	111	-4	-4
CCc1nnc(NC(=O)CSc2nc3c(c(=O)n2Cc2ccccc2)SC(C)C3)s1 (stereo not drawn)	99	102	-3	9
Cc1cc(NC(=O)CSc2nnc(Cn3c(=O)sc4ccccc43)n2-c2ccccc2)no1	100	103	0	4
O=C(NCc1cccs1)c1cc2c(=O)[nH]c3ccccc3c2s1	101	103	7	-2
CN(C)C(=S)c1nc2ccccc2s1	99	94	-50	45
CS(=O)(=O)OCCCCOS(C)(=O)=O	102	101	-1	-25

(continued)
SMILES	PV pol inh	PV pol inh intensity	MenB inh	Mtb MbtI inh
CC(C)COC(=O)c1cn(C2CCCCC2)c2ccccc2c1=O	99	104	0	-1
Cn1nc(Nc2ccccc2N)cc1-c1ccccc1	114	110	-22	10
C/C(=N\N=C1/NC(=O)CC(C(N)=O)S1)c1cccs1 (stereo not drawn)	100	103	-3	20
Cc1cc(NC(=O)C2CCC2)n(-c2ccccn2)n1	98	93	-6	-5
Cc1cccc(C(=O)OCC(=O)Nc2oc(C)c3c(C)n[nH]c(=O)c23)c1O	104	103	-14	-9
O=C(CN(c1ccc2c(c1)OCCO2)S(=O)(=O)c1ccccc1)NCc1ccco1	102	100	11	-8
Cc1ccc(CNc2ccc3c(c2)CCC3)o1	102	107	-44	-30
CCC(C)NC(=O)CCN1C(=O)c2ccccc2C1=O (stereo not drawn)	101	101	8	6
CCc1ccc(NC(=O)c2cccc3c2C(=O)N(CC)C3)cc1	102	103	3	-2
CCN(CC)C(=O)Cn1cc(/C=C2\C(=O)NC(=O)N(CC)C2=O)c2ccccc21	102	102	-42	115
COC(=O)c1ccc(CSc2nnc(C3CC3)n2Cc2ccccc2)o1	103	108	-6	8
CCOC(=O)C1=C(c2ccccc2)NC(SCC(=O)Nc2ccccc2)=C(C#N)C1c1ccco1 (stereo not drawn)	100	98	-21	2
OCC#CCSc1nc2ccccc2o1	101	99	39*	3
CCSc1nc2ccc(NC(=O)c3ccccc3C(=O)O)cc2s1	97	98	-13	·
COc1ccc(CC(=O)NC2=NC(=O)C(C)S2)cc1 (stereo not drawn)	99	99	·	0
COCCn1c(C)cc(C(=O)CSC2=Nc3ccccc3CS2)c1C	106	113	-18	-7
O=C(N=C1c2ccccc2CN1c1ccc2c(c1)OCO2)c1ccco1	106	108	-38	11
CC1CCCN(c2ccc(C(=O)NCCc3ccccc3)cn2)C1 (stereo not drawn)	104	103	-40	-56
Nn1c(-c2cccs2)nc2sc3c(c2c1=O)CCCC3	102	103	9	0
O=C(N/N=C/c1cccnc1)c1[nH]nc2c1CCc1ccccc1-2	103	101	-3	1

Limited to MenB inh, PV pol inh intensity and PV pol inh (2 entries from above):
smiles,MenB inh,PV pol inh intensity,PV pol inh
O=C1Nc2ccccc2Oc2cc(Sc3ccccc3)ccc21,-8,121,107
O=C(/C=C/c1ccc2c(c1)OCO2)Oc1ccc2c(c1)OCO2,-37,104,103

Reformatted bar-delimited: part of the list above.
canonical_smiles | PV pol inh | PV pol inh intensity | MenB inh | Mtb MbtI inh
COCCn1c(C)cc(C(=O)CSC2=Nc3ccccc3CS2)c1C | 106 | 113 | -18 | -7
COC(=O)c1ccc(CSc2nnc(C3CC3)n2Cc2ccccc2)o1 | 103 | 108 | -6 | 8

Remaining list, next part
SMILES	PV pol inh	PV pol inh intensity	MenB inh	Mtb MbtI inh
O=C(O)c1ccc(N/N=C/C2=C(N3CCOCC3)C(=C\c3ccccc3)/CC2)cc1	45	243	-151	56
O=C(O)CCCNC1C=CS(=O)(=O)C1 (stereo not drawn)	102	102	6	-7
N#CC(C(=O)c1ccc(F)cc1)c1nc2ccccc2[nH]1 (stereo not drawn)	103	104	-32	10
O=C(Nc1ccc2c(c1)OCO2)c1cnn2c(C(F)(F)F)cc(-c3ccco3)nc12	99	101	-17	-7
CCOC(=O)c1cc(CC)sc1NC(=O)C=C(C)C	101	101	-42	30
Cc1ccccc1S(=O)(=O)CC(SC#N)c1ccccc1 (stereo not drawn)	98	101	-7	38
C[C@@H](C(=O)N=c1sc2ccccc2n1C)N1C(=O)C2CC=CCC2C1=O (stereo partly drawn)	106	108	-11	6
CCc1c(C)nc2ccc(OC)cc2c1Cl	105	97	-13	·
S=c1[nH]nc(-c2ccc[nH]2)o1	94	91	-15	100
COc1cccc(C2c3c(-c4ccccc4O)n[nH]c3C(=O)N2CCc2ccccc2)c1 (stereo not drawn)	100	102	-15	-10
Cc1[nH]ccc2c1[nH]c1cc(=O)ccc12	103&105	98&99	-4&-3	·
CC(C)Cn1c(N)cc(=O)n(C)c1=O	102	100	-17	-6
COC(=O)c1cn(CC(=O)Nc2ccc(F)cc2)c2ccccc12	100	103	20	-9
CN1C(=O)CC(Nc2cccc3cccc(N)c23)C1=O (stereo not drawn)	100	109	-1	22
O=S(=O)(Nc1ccon1)c1cc(F)ccc1F	103	103	5	-20
CC(C)(C)NS(=O)(=O)c1ccc(/C=C/C(=O)O)cc1	99	99	-16	5
Cc1cc(C)nc(Nc2ncc(O)n2-c2ccc(Cl)cc2)n1	101	101	10	0
Clc1cccc(-c2nc(-c3ccccn3)no2)c1	107	111	-14	·
O=C(Cc1c(Cl)cccc1Cl)NCC(c1ccco1)N1CCCC1 (stereo not drawn)	·	·	-11	2
C=CCN1CC(c2nc3ccccc3n2C(C)c2ccccc2)CC1=O (stereo not drawn)	99	103	7	-7
CCN=c1sc(C(=O)OC)cc(=O)n1CC	104	105	-15	9
CCOC(=O)N1CCC(=NNC(=S)Nc2ccc(Cl)cc2Cl)CC1	139	158	-57	34
CCS(=O)(=O)n1nc(-c2ccc(OC)cc2OC)cc1N	102	105	7	-1
CC(C)(CO)NCc1cccs1	103	102	-7	-11
CN1C(=O)C(=O)/C(=C(/O)c2ccccc2)C1c1ccccc1 (stereo not drawn)	101	100	-13	-4
Cc1nnc(Oc2ccccc2C#N)c2ccccc12	101	104	8	1
CCOc1ccc(C(=O)Nc2ccc(-c3nn4c(C)nnc4s3)cc2)cc1	103	100	-2	11
O=S(=O)(c1ccc(N=c2scc(-c3ccco3)n2/N=C/c2ccc3c(c2)OCO3)cc1)N1CCOCC1	110	115	-33	-12
O=C(CCN1C(=O)c2ccccc2Sc2ncccc21)NC1CCCC1	102	101	2	-4
Cc1cc(C)nc(N(C#N)C(=S)N(C)C)n1	102	104	-5	102*
Cc1ccccc1CN(C)CC(O)COCc1ccc2c(c1)OCO2 (stereo not drawn)	108	108	-5	-8
COCc1[nH]nc2c1C(c1ccc(F)c(F)c1)C(C#N)=C(N)O2 (stereo not drawn)	102	102	-15	-4
O=C(NC1=NN(c2ccccc2)C(=O)C1)c1ccc(Br)s1	100	106	2	17
CCC(=O)Nc1ccc(-c2nc3ccccc3o2)cc1	101	100	-20	104
Cc1ccc(CS(=O)Cc2ccc(C(=O)NCC(C)c3ccccc3)o2)cc1 (stereo not drawn)	101	101	-15	-7
COc1ccc(CNC(=O)C2CCCN(c3ncnc4c3nc3n4CCCCC3)C2)cc1 (stereo not drawn)	103	103	-2	-11
O=c1cc(O)nc2ccccn12	98	101	-118	0
CC1CC(C)(C)CC2(C1)NC(=O)N(CC(O)c1ccccc1)C2=O (stereo not drawn)	100	105	3	14
COc1ccc(-n2nnnc2SCC(=O)NCC(C)C)cc1	104	104	-11	-7
Oc1cccc(Oc2ccccc2)c1	101	101	4	-4
CCCCn1c(CN2C(=O)NC3(CCCCC3C)C2=O)nc2cc(S(=O)(=O)N3CCOCC3)ccc21 (stereo not drawn)	100	93	-17	34
Cc1nn(C(=O)c2ccc(F)cc2)c(N)c1-c1ccccc1	101	99	-11	·
Clc1ccc(-c2nnc3ccccn23)cc1	100	99	-17	35
Nc1ccc(F)cc1S(=O)(=O)Nc1ccc(Br)cc1	103	100	·	-3
CC1CCCCN1S(=O)(=O)c1ccccc1C(=O)N1CCCCCC1 (stereo not drawn)	105	99	-20	-4
CCN(CCO)C(=O)NC1CC(=O)N(c2ccc(C)cc2)C1 (stereo not drawn)	99	107	-1	-7
Cc1ccsc1CCNS(=O)(=O)c1c(C(=O)N2CCCC2)c(C)n(C)c1C	99	101	-18	-19
S=C1OC(c2ccccc2)=C/C1=C\N1CCCCC1	102	102	-95	40
Cc1ccc(-n2c(C)cc(C(=O)COc3ccc(C#N)cc3)c2C)cc1	100	103	-25	3
O=C(CN1C(=O)c2ccccc2C1=O)NCC1COC2(CCCCC2)O1 (stereo not drawn)	106	107	-8	-7
Cc1ccccc1OCC1Cn2c(nc3c2c(=O)[nH]c(=O)n3C)O1 (stereo not drawn)	99	96	-40	·
COc1ccc(-n2ncc3c(N4CCc5ccccc54)ncnc32)cc1	99	103	5	6
O=S(=O)(/N=C(\OC1CCCCC1)c1ccccc1)c1ccccc1	104	108	-11	-5
CN(C)CCNC(=O)c1ccc(-n2c(=S)[nH]c3ccccc3c2=O)cc1	106	104	-13	4
O=C(COc1ccccc1)N(Cc1ccccc1)c1ccccn1	106	105	-25	·
